NS1 inh: qHTS Assay for Inhibitors of Influenza NS1 Protein Function | AID 2326, 2010 | 0.4% of 270,000 active | Potency, µM (highest dose often 46.1 µM), for inactives: at the highest dose activity, positive = more growth | S. cerevisiae slowed by influenza A NS1, growth recovery by OD600; also: actives are rising curves; nearly all actives have a fitted effect of over 50% in size
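Growth recovery, yeast-based: influenza A NS1 expressed in S. cerevisiae causes slow growth, and suppressors are detected by OD600. The parent strain without NS1 is used as positive control.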
Marburg entry inh: qHTS for inhibitors of binding or entry into cells for Marburg Virus; Marburg virus pseudotyped entry inhibition, cell reporter; control for the full effect not named in the record; about a third of the inactives were read at about 46 µM; Potency, µM (doses to about 37.8 µM), inactives show at the highest dose activity change, negative = inhibition, actives largely listed as inhibitors; 1.8% of 300,000 active; AID 540276, 2011; active = well fitted inhibition curve with a large enough effect; inconclusive = small, poorly fitted or top-dose-only effect, or effect the other way; inactive = flat fitted curve, though single readings scatter; tested in HEK293 cells; about a fifth of its hits are not listed in these tables; also: % is scaled to controls: 0 for no effect and ±100 for the full control effect; luciferase read-out
RE007 growth inh: qHTS Assay for Inhibitors of the HIV-1 protein Vpr. S. pombe RE007 Vpr strain, BacTiter-Glo ATP luminescence, 24 h; control for the full effect not named in the record. Potency, µM (top dose mostly 92.2 µM), without a hit: top-dose activity change, negative = less growth. 0.21% of 360,000 active; active = well fitted falling curve with a large enough effect; inconclusive = small, poorly fitted or top-dose-only effect; inactive = no such curve, though single readings can be large or run the other way;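 also: % is scaled to controls: 0 for no effect and ±100 for the full control effect; nearly all actives have a fitted effect of over 50% in size; the assay follows cell death caused by Vpr and the record does not say whether a fall means rescue or toxicity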
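Fission yeast strain RE007, carrying one chromosomally integrated HIV-1 vpr copy, was seeded at OD 0.01 in PMG+AL medium with 23 nL pinned compound. After 24 h at 30 °C and 99% humidity, viability was read by BacTiter-Glo luminescence.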
Cruzain noTriton: qHTS Assay for Promiscuous and Specific Inhibitors of Cruzain (without detergent); Cruzipain (Trypanosoma cruzi), P25779; purified cruzain, Z-FR-AMC fluorescence, no detergent; Potency, µM, without a hit: max response, negative = inhibition, usual class: inhibitors; 2.3% of 200,000 active; active = well fitted curve in the direction sought with a large enough effect; inconclusive = small, poorly fitted or top-dose-only effect, or another doubt; inactive = no such curve, though single readings can be large; an effect the other way counts as inactive or inconclusive;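 also: plate controls were enzyme without inhibitor for no effect and buffer without enzyme for full effect; nearly all actives have a fitted effect of over 40% in size; top concentration of the series not given in the record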
Target sequence (P25779 123-467 limits assumed): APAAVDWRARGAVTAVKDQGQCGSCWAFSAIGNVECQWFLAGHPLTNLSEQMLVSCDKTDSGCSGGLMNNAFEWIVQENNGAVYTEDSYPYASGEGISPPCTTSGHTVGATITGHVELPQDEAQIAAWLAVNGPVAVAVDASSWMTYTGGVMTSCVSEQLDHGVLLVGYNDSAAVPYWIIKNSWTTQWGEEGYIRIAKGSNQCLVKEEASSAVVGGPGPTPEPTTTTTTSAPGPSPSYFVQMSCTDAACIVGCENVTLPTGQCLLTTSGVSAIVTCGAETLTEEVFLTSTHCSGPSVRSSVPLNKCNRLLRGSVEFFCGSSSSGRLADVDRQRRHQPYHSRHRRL
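Detergent-free condition (0.00005% Triton X-100) in acetate buffer pH 5.5 with DTT. 1.5 nM enzyme and compound were pre-mixed 15 min, then 2 uM Z-FR-AMC substrate added; reaction progress from fluorescence change between first and third reads (60 s).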
Cruzain inh Det: qHTS Assay for Promiscuous and Specific Inhibitors of Cruzain (with detergent) | Cruzipain (Trypanosoma cruzi), P25779 | purified cruzain, Z-FR-AMC fluorescence, 0.01% Triton | Potency, µM, for the others: max response, negative = inhibition, hits mostly inhibitors | 0.43% of 200,000 active; active = well fitted curve in the direction sought with a large enough effect; inconclusive = small, poorly fitted or top-dose-only effect, or another doubt; inactive = no such curve, though single readings can be large; an effect the other way counts as inactive or inconclusive;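 also: plate controls were neutral wells for no effect and buffer without enzyme for full effect; nearly all actives have a fitted effect of over 40% in size; top concentration of the series not given in the record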
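Cysteine protease activity tested under reducing, mildly acidic conditions (100 mM sodium acetate pH 5.5, 5 mM DTT) plus 0.01% Triton X-100. Cruzain 1.5 nM; substrate Z-FR-AMC 2 uM; 15 min compound preincubation at room temperature.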
SARS PLP yeast: qHTS of Yeast-based Assay for SARS-CoV PLP. AID 485353, 2010. 0.19% of 330,000 active. Potency, µM (titrated, usually from 32.9 µM), inactives show top-dose activity, positive = growth rescue. S. cerevisiae expressing SARS-CoV PLpro, growth rescue; control for the full effect not named in the record; also: 0% is about no effect; nearly all actives have a fitted effect of over 55% in size; growth read by luminescence after 48 h
2A StopGo: High Throughput Screening for Foot and Mouth Disease Virus Antivirals; Potency, µM (top dose mostly 57.9 µM), inactives show at the top dose signal change, negative = less light; human cells with a luciferase reporter of 2A StopGo recoding; control for the full effect not named in the record; 1.2% of 410,000 active; active = well fitted falling curve with a large enough effect; inconclusive = small, poorly fitted or top-dose-only effect; inactive = no such curve, though single readings can be large or run the other way; tested in HEK293T cells; also: % is scaled to controls: 0 for no effect and ±100 for the full control effect; nearly all actives have a fitted effect of over 45% in size; luciferase light after 4 h
LASV entry inh: qHTS for Inhibitors of binding or entry into cells for Lassa Virus | AID 540256, 2011 | Potency, µM (titrated, usually from 37.9 µM), for the others: top-dose activity change, negative = inhibition, usual class: inhibitors | Lassa virus pseudotype entry inhibition, cell reporter; control for the full effect not named in the record | 1.2% of 300,000 active; active means well fitted inhibition curve with a large enough effect; inconclusive means small, poorly fitted or top-dose-only effect, or effect the other way; inactive means flat fitted curve, though single readings scatter; tested in HEK293 cells; also: % is scaled to controls: 0 for no effect and ±100 for the full control effect; nearly all actives have a fitted effect of over 50% in size; luciferase read-out
Numbers without * were called inactive; ? = inconclusive; nt = not tested or not shown; & = joins results of further samples; [ ] = remark or other dose. Unless noted, calls follow the shape of the dose curve; as a rule, active means well fitted rising curve with a large enough effect; inconclusive means small, poorly fitted or top-dose-only effect; inactive means no such curve, though single readings can be large or run the other way. Potency is read from the fitted curve at half-maximal effect.

SMILES	NS1 inh	Marburg entry inh	RE007 growth inh	Cruzain noTriton	Cruzain inh Det	SARS PLP yeast	2A StopGo	LASV entry inh
CC(Sc1nnc(CC(C)c2ccccc2)n1N)C(N)=O (stereo unspecified)	-1%	nt	-5%	nt	nt	-1%	-6%	nt
COc1ccc(-c2nnc3n2N=C(c2cccc(Br)c2)CS3)cc1OC	4%	-3%	nt	10%	9.1%	13%	nt	nt
CCCc1c(C(=O)Nc2cc(C(C)(C)C)on2)cnn1-c1ccccc1	1%	nt	-18%	nt	nt	0%	?	nt
Cc1ccc(CNC(=O)C2COc3ccccc3C2)cc1 (stereo unspecified)	nt	nt	nt	1%	0.9%	nt	29%	9%[46.1 µM]
CCN(CC)CCCN1C(=O)C(=O)/C(=C(/O)c2ccc3c(c2)CC(C)O3)C1c1ccncc1 (stereo unspecified)	5%	nt	nt	?	7.0%	-5%	nt	nt
Cc1ccc(NC(=O)CN2C(=O)C(c3ccc(F)cc3)=NC2(C)C)c(C)c1	nt	-13%[46.1 µM]	nt	-5%	-2.2%	nt	10%	13%[46.1 µM]
Cc1cccc(C(=O)N2c3ncnn3C3(CCCCC3)[C@@H]3CCCC[C@@H]32)c1	nt	-19%[46.1 µM]	nt	-2%	-1.5%	nt	0%	1%[46.1 µM]
Cc1cc(C)c(S(N)(=O)=O)c(C)c1-n1cnnn1	3%	11%	3%	5%	4.1%	-6%	46%[activator]	?
COc1ccc(Cc2nnc(NC(=O)CSc3ccc(Cl)cc3)s2)cc1OC	5%	nt	nt	8%	-3.8%	-9%	nt	nt
CCOc1ccc(OCc2ccc(C(=O)N3CCOCC3)cc2)cc1	-5%	-5%	-8%[3.69 µM]	28%	-1.8%	8%	-9%	27%
O=S(=O)(c1ccccc1)c1cnc(-c2cccnc2)nc1-c1ccccc1	10%	-16%	-1%	7%	-5.8%	-3%	8%	-1%
CCOc1ccc(C(=O)N(Cc2ccc(N(C)C)cc2)C2CCS(=O)(=O)C2)cc1 (stereo unspecified)	-37%	12%	0%	0%	0.0%	0%	-13%	5%
Cc1snc(S(=O)(=O)/C(C#N)=N/Nc2ccc(C(F)(F)F)cc2)c1C#N	11%	13%	15%	-2%	-27%	0%	-23%	12%
CC(=O)c1ccc(NC(=O)COC(=O)c2nc(Cl)ccc2Cl)cc1	nt	-3%	2%	nt	nt	-1%	3%	?
CCc1cc(=O)oc2c(C)c(OCC(=O)N3CCC(C(=O)O)CC3)ccc12	3%	nt	2%	nt	nt	1%	0%	nt
Cc1nn(C(C)(C)C)c(OC(=O)C2CCCC2)c1S(=O)(=O)c1ccccc1	-69%	-21%	11%	15%	-5.0%	-25%	-15%	?
CCCCC1=CC2=CC(=O)C(C)(OC(=O)CC)C(=O)C2=CN1CCc1ccccn1 (stereo unspecified)	?	nt	9%	nt	nt	-3%	-1%	nt
COc1ccc(C(C(=O)NC2CCCC2)N(C(=O)c2ccoc2C)c2ccccc2)cc1 (stereo unspecified)	-4%	-2%	2%	-7%	-1.7%	-9%	0%	-6%
Cc1ccc(CN2CCc3nc(N4CCN(C)CC4)ncc3C2)cc1	nt	nt	nt	0%	1.2%	nt	-14%	-8%[46.1 µM]
CC(C)OC(=O)c1cc(C(=O)c2cc(F)ccc2O)coc1=N	-8%	-5%	5%	-2%	-1.5%	15%	17%	22%
Oc1ccc(/C=C/c2cnccn2)cc1	-4%	?	-13%	nt	nt	2%	30%	1%[46.1 µM]
COc1ccc(N=Cc2c(O)n(Cc3ccccc3)c(=S)[nH]c2=O)c(OC)c1	1%	6%	-2%	nt	nt	1%	39%[activator]	14%
O=C1/C(=C/c2ccc(N3CCOCC3)o2)SC(=Nc2ccccc2)N1CCc1c[nH]c2ccccc12	-7%	?	58%	-2%	-0.3%	-34%	-16%	7.1µM*
Nc1ccc(NC(=O)NC2CCCCC2)cc1[N+](=O)[O-]	9%	?	11%	nt	nt	0%	39%[activator]	16%[46.1 µM]
O=C(O)CNS(=O)(=O)c1ccc2c(c1)Cc1cc(S(=O)(=O)NCC(=O)O)ccc1-2	-5%	nt	-10%	nt	nt	-3%	-15%	nt
Cc1ccc(C)c(N2CCN(c3nc4ccccc4c4nc(-c5cccnc5)nn34)CC2)c1	nt	1%[46.1 µM]	nt	4%	0.5%	nt	-24%	nt
CC(C)Cn1c(N)c(C(=O)COC(=O)C2CCCCC2)c(=O)n(C)c1=O	-10%	1%	6%	-2%	-1.1%	-4%	?	-15%
O=C(Nc1nnc(Cc2ccc(Cl)cc2)s1)c1ccncc1	-5%	nt	-29%	nt	nt	-1%	2%	nt
CC1=C(C(=O)OCc2ccccc2)C(c2ccccc2)NC(=O)N1CCCC(=O)O (stereo unspecified)	4%	nt	-6%	nt	nt	0%	-4%	nt
O=C(Nc1ccc(Br)cc1)c1ccc2c(c1)OCO2	-9%	nt	7%	nt	nt	1%	33%[activator]	nt
O=C(O)c1ccccc1Nc1ccc([N+](=O)[O-])cc1C(=O)O	11%	-3%[46.1 µM]	15%	nt	nt	2%	-10%	-13%
O=C(NCc1nc(-c2ccccc2)no1)Nc1ccc(F)cc1	-2%	?	4%	nt	nt	2%	0%	11%[46.1 µM]
O=C(CSc1ccc(-c2ccco2)nn1)c1ccccc1	29%	5%	-29%	-7%	-18%	-6%	35%[activator]	17%
O=C1C(=O)N(Cc2cccnc2)C(c2cccc([N+](=O)[O-])c2)/C1=C(/O)c1ccc2c(c1)OCO2 (stereo unspecified)	11%	2%	37%	nt	nt	4%	-19%	1%
O=C(Nc1ccc(Br)cc1F)c1cccnc1	-17%	-52%	1%	-10%	-3.1%	0%	38%[activator]	-17%
Cc1cc(C(=O)O)c(C)n1C1CC1	-3%	-10%[46.1 µM]	1%	nt	nt	-2%	-4%	16%
CN(Cc1nc(-c2cccnc2)no1)S(=O)(=O)c1ccc2ccccc2c1	-64%	20%	8%	2%	-28%	2%	-26%	-7%
COc1cccc(C(C(=O)NCc2ccco2)N(Cc2ccco2)C(=O)Cn2nnc3ccccc32)c1 (stereo unspecified)	13%	?	-3%	9%	4.3%	-5%	-21%	-21%
CCOc1ccc(NC(=O)CN2C(=O)NC(CCSC)C2=O)cc1 (stereo unspecified)	nt	?	23%	nt	nt	-1%	-3%	15%[46.1 µM]
COc1cc(C(C)=O)ccc1OCC(=O)Nc1cc(C)on1	nt	?	-11%	nt	nt	-1%	24%	-3%
CCN(CC)CCNC(=O)C1CCCN(c2nnc(C)c3c(C)n(-c4ccc(Cl)cc4)nc23)C1 (stereo unspecified)	nt	nt	nt	-3%	-13%	nt	-2%	-13%[46.1 µM]
COc1ccccc1C(=O)Nc1ccc2nc(SCC(=O)N(C)C)sc2c1	-14%	-1%	-11%	?	-5.9%	9%	-25%	-7%
CC1=C(c2ccccc2)[N+](=O)C2(CCCC2)N1[O-]	4%	?	-19%	4%	3.2%	3%	34%[activator]	-22%
O=C(NCc1ccc(F)cc1)c1cc2ccccn2n1	-38%	12%	15%	0%	-0.4%	14%	3%	-1%
Cc1cccc(C)c1NC(=O)C1CCN(S(=O)(=O)c2cccc3nsnc23)CC1	nt	7%[46.1 µM]	nt	-11%	-0.4%	nt	-5%	?
CCCCCOc1ccc(C(=O)OCC(=O)Nc2cc(C)c(C)cc2[N+](=O)[O-])cc1	?	9%	2%	-25%	-0.2%	30%	-11%	8%
CCc1noc(C)c1C(=O)Nc1nc2ccc(OC)cc2s1	nt	1%[46.1 µM]	-32%	nt	nt	-5%	-4%	18%
COc1ccc(CCNS(=O)(=O)c2ccc(N3CCCCS3(=O)=O)cc2)cc1	nt	nt	nt	4%	-0.1%	nt	18%	?
COc1cc2c(cc1OC)CN(c1nc(-c3cccnc3)nc3ccccc13)CC2	4%	?	20%	nt	nt	-20%	16µM*	?
CC(C)CC(=O)Nc1c2c(nn1-c1ccc(F)cc1)CSC2	17%	?	12%	7%	2.3%	16%	-2%	19%
COc1ccc(NC(=O)CSc2nnc(N)s2)c([N+](=O)[O-])c1	nt	?	-15%	nt	nt	10%	-1%	9%
O=C(c1noc2c1CCCC2)N1CCCC(N2CCN(c3ccccc3F)CC2)C1 (stereo unspecified)	-1%	-17%[46.1 µM]	-7%	nt	nt	4%	-14%	-12%[46.1 µM]
O=S(=O)(NC1CCCC1)c1cc(F)ccc1F	7%	nt	14%	nt	nt	-2%	4%	nt
Cc1ccc(C(=O)COc2cc(C)nc3nncn23)cc1	7%	nt	-11%	nt	nt	0%	2%	nt
O=C(CC1NCCNC1=O)NC1Cc2ccccc2C1 (stereo unspecified)	-4%	-2%[46.1 µM]	-2%	nt	nt	1%	-17%	-4%[46.1 µM]
O=C(O)CCN1C(=O)c2ccccc2C1=O	0%	27%	-10%	-1%	2.1%	-1%	6%	18%
CC1CC(C)CN(C(=O)c2ccc(S(=O)(=O)N3CC(C)CC(C)C3)cc2)C1 (stereo unspecified)	-5%	?	-10%	nt	nt	0%	-20%	?
COc1ccccc1C1=NN(C(=S)Nc2ccccc2)C(c2ccco2)C1 (stereo unspecified)	?	?	-3%	?	-2.5%	-2%	47%[activator]	?
COC(=O)c1cc(OC)c(OC)cc1-n1cnc2cc(OC)c(OC)cc2c1=O	6%	-1%	-7%	8%	-1.7%	6%	2%	3%
Cc1ccc(-c2ccc([C@H]3[C@@H]4C=CCC[C@@]4(C)C(=O)N3Cc3ccccc3)c(F)c2)cc1	16%	nt	26%	nt	nt	-2%	-25%	nt
Cn1c(Cl)nc2c1c(=O)n(Cc1cccc(Br)c1)c(=O)n2C	-5%	19%&19%	4%	4%	-1.5%	-11%	-13%	24%
CCc1ccc(-c2nc(CN3CCC(C(=O)NCCc4ccc(OC)c(OC)c4)CC3)c(C)o2)cc1	-11%	?	-2%	18%	4.3%	-1%	-28%	?
CCCN1CCC(NC(=O)Nc2ccc(OC)c(OC)c2)CC1	?	14%	-1%	-3%	-1.2%	0%	9%	22%

Source: PubChem (National Center for Advancing Translational Sciences (NCATS))
